Compound activity deposited in PubChem by several laboratories.
E coli growth: E. coli growth inhibition; 330,000 tested, 0.21% active; AID 1053175; OD600 absorbance (test concentration not listed); Escherichia coli growth, OD600, 23 h; stronger effect = lower value;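 active means OD600 absorbance below the run mean of sample wells minus 3.6 SD, in any replicate, cut at about 0.56 in these data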;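 further: stock transfer was 300 nL into about 60 µL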
AF4-AF9 inh: inhibitors of human MLL-AF4/AF9 interaction | AlphaScreen, biotin-AF4 peptide binding to FLAG-AF9 | 350,000 tested, 0.47% active | P42568 | inhibition, % at 10 µM;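 active means every replicate reaching a set inhibition limit, whatever the replicate mean, cut at about 25% in these data; inconclusive means mean inhibition reaches that limit but some replicates miss it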;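 further: 0% = plate neutral control median and 100% = total signal loss; the record names both 10 and 1 µM as test concentration; the first replicate is given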
HNF4A DNA FP: change in binding of human HNF4 alpha to DNA | P41235 | HNF4a-FITC DNA binding, fluorescence polarization, 1 h | activity change, % at 10 µM | 360,000 tested, 0.3% active | AID 1224865; in the data active means activity change above about 30%, passing the limit was not always enough;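 further: controls were the assay level and a saturating level of protein; the project sought stronger binding though the title names inhibitors; some compounds called inactive have numbers as strong as hits; positive values seem to mean higher polarization but the record does not say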
Target sequence (P41235 whole entry, looked up): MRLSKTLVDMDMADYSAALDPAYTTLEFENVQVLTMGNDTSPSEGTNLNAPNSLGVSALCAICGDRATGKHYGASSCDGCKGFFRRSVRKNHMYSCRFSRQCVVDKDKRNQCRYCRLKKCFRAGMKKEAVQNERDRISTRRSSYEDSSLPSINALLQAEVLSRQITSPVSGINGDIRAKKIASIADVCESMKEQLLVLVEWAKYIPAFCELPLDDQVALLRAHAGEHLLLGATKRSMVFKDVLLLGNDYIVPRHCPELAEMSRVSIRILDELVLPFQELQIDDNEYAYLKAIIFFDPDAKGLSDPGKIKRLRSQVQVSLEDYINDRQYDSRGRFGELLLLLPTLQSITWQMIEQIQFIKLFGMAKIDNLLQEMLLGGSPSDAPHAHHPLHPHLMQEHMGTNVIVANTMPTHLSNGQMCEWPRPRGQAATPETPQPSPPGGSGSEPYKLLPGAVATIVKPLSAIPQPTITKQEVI
FGF22 binding: binders of recombinant human FGF22 by thermal shift; AID 651658; SYPRO orange fluorescence; percent of sucrose octasulfate shift, DMSO zero; 340,000 tested, 1.5% active; calls only at 9.99 µM; Q9HCT0;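 active means melting point raised past a set limit in the mean and every replicate; inconclusive means no clear call; three in four hits are not shown here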
Target sequence (Q9HCT0 whole entry, looked up): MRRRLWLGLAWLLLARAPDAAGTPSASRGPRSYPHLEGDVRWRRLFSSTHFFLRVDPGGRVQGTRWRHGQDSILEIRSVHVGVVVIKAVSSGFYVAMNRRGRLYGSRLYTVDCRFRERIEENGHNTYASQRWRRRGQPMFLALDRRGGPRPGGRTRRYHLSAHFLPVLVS
RanGTP-Impb inh: inhibitors of RanGTP-importin-beta interaction, primary screen, biochemical, FRET, CFP-Ran, YFP-importin-beta, homogeneous | cell-free CFP-Ran/YFP-importin-beta FRET ratio | inhibition, % (test concentration not listed) | 300,000 tested, 1.1% active;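 active means most replicates above 15%; inconclusive means exactly half above 15%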;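 further: 0% = DMSO wells and 100% = Ran loaded with GDP instead of GTP; wells of about 40 µL received 100 nL stock; the first replicate is given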
Vif A3G: inhibitors of Vif binding to APOBEC3G peptide, primary screen, biochemical, TR-FRET, GST-Vif 1-94, biotin-A3G peptide, dose response retest (AID 1117319) | inhibition, %, or IC50 in µM where a hit was titrated | 260,000 tested, 0.57% active | TR-FRET GST-Vif / biotin-A3G peptide binding; higher % means a stronger effect; test concentration not given here; strong numbers were not always called active;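 active means above the screen mean plus three standard deviations and confirmed in dose response; inconclusive means results disagree or hit not tested in dose response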;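 further: Vif residues 1-94 fused to GST binding biotinylated APOBEC3G peptide 110-148; 0% = full assay without inhibitor and 100% = GST in place of GST-Vif; retest series ran down from 100 µM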
UCH37 inh: human UCH37 deubiquitinating enzyme inhibition. Q9Y5K5. purified proteasome/UCH37, Ub-AMC cleavage fluorescence. inhibition, % (no concentration beside the values). 330,000 tested, 0.33% active;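 active means mean of two replicates above 20%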;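 further: 0% = compound-free wells with enzyme and 100% = wells lacking proteasome; stock transfer was 100 nL into about 20 µL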
Target sequence (Q9Y5K5 whole entry, looked up): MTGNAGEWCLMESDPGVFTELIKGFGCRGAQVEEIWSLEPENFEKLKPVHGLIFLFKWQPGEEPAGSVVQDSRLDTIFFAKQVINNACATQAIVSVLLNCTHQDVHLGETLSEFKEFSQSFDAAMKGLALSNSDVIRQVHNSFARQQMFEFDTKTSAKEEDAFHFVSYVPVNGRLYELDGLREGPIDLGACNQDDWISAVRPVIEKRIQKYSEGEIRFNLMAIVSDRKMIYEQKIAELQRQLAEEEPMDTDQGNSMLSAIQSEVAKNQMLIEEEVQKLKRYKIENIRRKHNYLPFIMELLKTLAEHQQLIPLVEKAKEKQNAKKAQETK
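system = Proteasome-associated human UCH37 deubiquitinase | amount = 0.15 nM proteasome as dispensed | medium = pH 7.4 Tris-HCl (50 mM) with ovalbumin, ATP-MgCl2, DTT | incubation = 30 min preincubation with enzyme, 25 min cleavage at room temperature | detection = AMC fluorescence 355/460 nm | read-out basis = percent inhibition | controls = no-proteasome and no-compound wells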
The depositor's hits bear a star; i = inactive; ? = inconclusive; / = no result given; & = joins results of further samples. These rows are one share of the data; the hit share may differ from the screen's.

SMILES	E coli growth	AF4-AF9 inh	HNF4A DNA FP	FGF22 binding	RanGTP-Impb inh	Vif A3G	UCH37 inh
CNC(=O)CSCCn1c(SCC(=O)NC)nc2ccccc2c1=O	0.66	/	6.7	/	1.5	7%	0.1
CCOCc1nc(C)c(Cl)c(NS(=O)(=O)c2ccc(N)cc2)n1	0.69	/	1.5	/	4.6	1%	0.4
CCN(CC)S(=O)(=O)c1ccc(Cl)c(OC)c1	0.65	/	0.0	/	-1.9	15%	3.0
O=C(CSc1nnc2c(n1)[nH]c1ccccc12)N1CCCCC1	0.61	0.3	-1.9	i	-0.2	-5%	6.0
COC(=O)c1ccc(OCCOc2ccccc2C)cc1	0.66	-4.4	2.7	i	2.7	-9%	0.4
CCCCn1c(SCN2C(=O)c3ccccc3C2=O)nc2cc(S(N)(=O)=O)ccc21	0.76	/	0.8	/	2.5	-5%&31%	-1.2
Cc1cc(S(=O)(=O)NCCCN2CCOCC2)c(Cl)cc1Cl	0.65	-0.4	2.5	i	-1.8	/	3.1
Clc1ccc(/C=N/Nc2ncnc3nc[nH]c23)cc1	/	4.0	-0.3	i	-2.8	/	/
CCc1cc(C(=O)c2ccccc2OC)c(N)s1	0.66	/	4.7	/	?	5%	6.3
O=C(COc1cc2oc(=O)c3c(c2cc1Cl)CCC3)NCC(O)c1ccccc1 (stereo unspecified)	0.66	1.2	4.2	i	0.7	-5%	-6.3
O=C(CN(Cc1ccccc1)C(=O)CCC(=O)Nc1nccs1)NCc1ccc(F)cc1	0.64	1.1	8.9	/	5.3	/	0.3
Cc1cc(C)n2cc(COc3ccccc3)nc2n1	0.7	-0.5	2.5	i	5.7	-7%	-130
CC(C)CCOc1ccc(C2CC(=O)N(C)C2=O)cc1 (stereo unspecified)	0.69	-2.3	-1.2	/	-4.0	-3%	1.0
N#C/C(=C\c1ccc(F)cc1)c1n[nH]c(Cn2cncn2)n1	0.73	/	1.7	/	6.2	-5%	0.2
CCOc1ccc(C(=O)NCC(=O)OCCCOC(=O)CNC(=O)c2ccc(OCC)cc2)cc1	0.71	-0.4	5.6	i	6.9	/	1.2
COc1c(C)cc(Br)cc1C(=O)NC(=S)NCc1ccco1	0.7	-1.8	0.1	i	4.1	3%	1.5
CC(C)c1cc(NCC2CCCO2)n2c(nc3ccccc32)c1C#N (stereo unspecified)	0.7	/	0.6	/	-2.5	?	i
CC(=O)Oc1c(C(=O)c2nnc(C)o2)c(=O)n(Cc2ccccc2)c2ccccc12	0.66	-3.0	-1.2	i	9.2	/	-34
CCC(C)(C)NC(=O)C1CC(=O)N(CCc2ccc(F)cc2)C1 (stereo unspecified)	0.58	-5.0	-0.8	i	0.9	2%	1.7
CCC(C)NS(=O)(=O)c1ccc(NC(=O)Cc2ccc(OC)cc2)cc1 (stereo unspecified)	0.63	-1.6	-2.9	i	2.9	-1%	2.4
O=[N+]([O-])c1ccc(C2CCCC/C2=N/O)c([N+](=O)[O-])c1 (stereo unspecified)	/	-0.5	2.4	i	?	0%	/
Cc1c(-c2nc3ccccc3[nH]2)cnn1C	0.67	-9.2	0.4	i	/	-4%	4.0
Nc1c(C(=O)NCc2ccco2)c2nc3ccccc3nc2n1CCc1ccccc1F	0.69	/	6.8	/	50*	6%	-237
CN(Cc1nc2ccccc2c(=O)[nH]1)Cc1cc(=O)oc2ccc3ccccc3c12	0.67	/	-3.6	/	-3.3	2%	-6.3
CN(C)S(=O)(=O)c1cccc(C(=O)NC(=S)N(CCC#N)Cc2cccnc2)c1	0.66	-1.8	-0.5	i	0.8	-2%	1.2

Later entries
SMILES	E coli growth	AF4-AF9 inh	HNF4A DNA FP	FGF22 binding	RanGTP-Impb inh	Vif A3G	UCH37 inh
COCCCN1CC23C=CC(O2)C(C(=O)O)C3C1=O (stereo unspecified)	0.75	-3.8	-2.1	i	-4.0	72%	2.4
CC(=O)COc1ccc2c3c(c(=O)oc2c1C)CCCCC3	0.7	/	-0.7	/	?	-5%	-74
Cc1ccc(C2CC(=O)C(C=NCCN3CCN(C(=S)Nc4ccccc4)CC3)=C(O)C2)cc1 (stereo unspecified)	0.71	4.5	-2.3	i	?	16%	2.9
COc1ccc(N2CCN(C(=O)CN3C(=O)NC(C)(C4CC4)C3=O)CC2)cc1 (stereo unspecified)	0.7	2.1	-0.5	i	/	/	1.9
CC(C)C(NC(=O)c1ccc(C(C)(C)C)cc1)C(=O)NCC(c1ccccc1)N(C)C (stereo unspecified)	0.68	-4.3	1.8	i	-1.0	/	2.3
O=C(COc1ccccc1F)NNC(=O)c1ccc2c(=O)n3c(nc2c1)CCC3	0.7	-1.3	0.1	i	5.9	-3%	2.7
CCOC(=O)C1=C(C)N(C)C(C)=C(C(=O)OCC)C1c1cccnc1	0.7	/	3.2	/	1.0	1%	0.0
CCn1c(O)c(N=NC(=O)Cc2csc(N3CCOCC3)n2)c2ccccc21	0.69	2.9	0.3	i	-1.0	/	3.5
CC1CCN(S(=O)(=O)N2CCCC(C(=O)NCc3ccccc3Cl)C2)CC1 (stereo unspecified)	0.66	-3.8	2.7	i	0.3	/	6.7
O=C(Nc1ccc(Cl)cn1)c1ccc(COCC(F)(F)C(F)F)o1	0.66	/	1.9	/	-1.5	2%	3.6
CCOc1ccccc1N1CC(C(=O)Nc2ccccc2N2CCOCC2)CC1=O (stereo unspecified)	0.69	/	-1.1	/	-1.3	0%	1.1
CCN1CCC2(CC1)N=C(c1ccc(F)cc1)C(=S)N2C(=O)c1ccc(C(C)(C)C)cc1	0.68	6.2	-2.0	i	-4.2	/	9.1
Cc1c(C(=O)Nc2ccc(S(=O)(=O)Nc3ncccn3)cc2)oc2ccc(Cl)cc12	0.74	-1.0	-1.8	i	-2.6	/	-6.6
CCOC(=O)C1C(=O)NC(C(=O)OCC)(C(=O)OCC)C1C(C)CC (stereo unspecified)	0.71	-4.4	2.4	i	/	-1%	-1.2
CCOC(=O)C1=C(C)NC(C)=C(C(=O)OCC)C1c1ccco1	0.66	2.8	-0.4	i	8.2	22%	-12
COc1ccc(-c2nn3c(=O)c(C)nnc3s2)cc1	0.7	/	3.0	/	1.1	-4%	-24
COc1ccc(S(=O)(=O)N2CCCCC2C(=O)O)cc1OC (stereo unspecified)	0.68	/	-1.6	/	-3.1	-3%	0.4
CC(=O)Nc1ccc(S(=O)(=O)N(C)C2CCN(C)CC2)cc1	0.63	-7.7	0.5	i	9.3	/	0.0
Cc1ccc(C2(c3noc(CN(C)CCCN4CCOCC4)n3)CCCC2)cc1	0.71	1.6	/	i	0.9	-15%	1.7
CCC(C)n1c(SCc2ccc([N+](=O)[O-])cc2)nc2ccsc2c1=O (stereo unspecified)	0.77	5.3	3.1	i	-2.1	-4%	4.5
COCCCN(Cc1ccccn1)S(=O)(=O)Cc1ccccc1	0.74	/	0.1	/	/	28%	-1.3
COc1ccc(C(=O)Nc2ncc(C)s2)cc1S(=O)(=O)N1CCCC1	0.7	-0.7	-3.4	i	5.8	/	1.0
Cc1nc(NS(=O)(=O)c2cccc([N+](=O)[O-])c2)sc1C(C)(C)C	0.7	1.5	3.0	i	-0.2	/	3.9
COc1ccc(NC(=O)CN(C)C(=O)c2c(C)nn(-c3ccccc3)c2Cl)cc1	0.72	4.5	1.3	i	1.8	-2%	3.1
COC(=O)c1ccccc1NC(=S)NC(=O)COc1ccc(C(C)C)cc1	0.69	2.0	-1.6	i	2.4	10%	1.9

Going on with the list:
SMILES	E coli growth	AF4-AF9 inh	HNF4A DNA FP	FGF22 binding	RanGTP-Impb inh	Vif A3G	UCH37 inh
CCOC(=O)N1CCN(C(=O)c2ccccc2NC(=O)COc2ccccc2C)CC1	0.81	-7.6	-1.9	i	0.2	1%	2.4
Cc1cccc(S(=O)(=O)NCCC(=O)OCC(=O)Nc2ccc(C#N)cc2)c1	0.68	/	-0.5	/	5.7	-4%	3.1
COc1ccc(OC)c(/C=C(\NC(=O)c2ccccc2)C(=O)N/N=C/c2ccc(C)s2)c1	/	/	8.4	/	-15	7%	/
CSc1nc(NCCCN(C)C)c2c3c(sc2n1)CN(C)CC3	/	4.1	/	i	4.5	/	/
O=C(Nc1ccccc1C(=O)N1CCCCC1)c1cc(F)c(F)cc1Cl	0.69	-1.4	3.3	i	2.4	-2%	4.6
COc1ccc(NC(=O)N2CCCCCC2)cc1OC	0.73	-0.7	-1.6	i	1.4	7%	1.6
CC(C)Oc1ccc(C(CC(=O)O)NC(=O)CSc2ncn[nH]2)cc1 (stereo unspecified)	0.75	/	1.7	/	-2.0	-5%	0.0
COCCN1CCN(c2c(C)c(C)nc3cc(-c4cccc(OC)c4)nn23)CC1	0.62	-7.4	1.7	i	3.6	/	-1.3
O=C(CCC1CCCCC1)NCCN1C2=NC[C@H](Cc3ccccc3)N2C[C@H]1Cc1ccc(O)cc1	/	14	0.9	i	-1.8	?	0.9
c1ccc(CCn2nnnc2C(c2cccnc2)N2CCOCC2)cc1 (stereo unspecified)	0.71	-3.9	-2.5	i	6.4	3%	5.2
CN1CCN(C(=O)CCc2ncc(C(F)(F)F)cc2Cl)CC1	0.7	-0.4	3.6	i	-0.2	1%	3.4
O=C(COc1ccc(Cl)cc1)Nc1c(-c2cccs2)nc2ccccn12	0.69	3.3	-1.5	i	-0.3	/	-37
O=C1CCN(Cc2ccccc2)CCN1[C@H](COc1ccccc1)Cc1ccccc1	0.78	7.5	-3.5	i	-3.1	/	0.7
NC(=O)NCC1CC1	0.66	-0.5	0.3	i	2.0	-2%	2.5
CN(CC(=O)Nc1cccc(F)c1)C(=O)c1ccc2c(c1)S(=O)(=O)N=C1CCCCCN12	/	-3.6	-2.5	i	?	/	/
Nc1nc(SCC(=O)NC2CCCCC2)n[nH]1	0.68	-1.7	-1.2	i	5.1	/	0.1
CC(C)(C)NC(=O)C(c1ccncc1)N(C(=O)Cn1nnc(-c2ccc(F)cc2)n1)c1ccccc1F (stereo unspecified)	0.69	-0.7	2.8	i	-3.0	8%	3.3
CC(OC(=O)CCCN=C1NS(=O)(=O)c2ccccc21)C(=O)c1ccccc1 (stereo unspecified)	0.7	-0.4	1.1	i	0.4	-1%	1.1
O=C(NCc1csc(-c2cccs2)n1)C1CCCCC1	0.65	1.3	0.8	i	-4.2	-18%	-2.5
CCN(CC)S(=O)(=O)c1ccc(C(=O)Nc2cc(C)cc(C)c2)cc1	0.7	/	4.6	/	-2.0	-12%	-0.9
C=CCOC(=O)C1=C[C@@H](c2ccc(Br)cc2)[C@H](CCCO)[C@@H](OCC)O1	/	-2.8	-2.8	i	-5.1	1%	1.2
Cc1ccc(-c2csc(NC(=O)CN3C(=O)CCC3=O)n2)cc1	0.72	-4.3	6.7	i	0.2	7%	2.5
